miR-21 reporter: qHTS Assay for Modulators of miRNAs and/orActivators of miR-21; HeLa miR-21 FLuc reporter, luciferase, 48 h; Potency, µM (titrated, usually from 38.3 µM), for inactives: at the top dose reporter change, positive = more light; 340,000 tested, under 10 active; active = well fitted rising curve with a large enough effect; inconclusive = small, poorly fitted or top-dose-only effect; inactive = no such curve, though single readings can be large or run the other way;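 note: % of control where 0% means no effect; miR-21 action dims this reporter so a rising signal means less miR-21 action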
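HeLa cells endogenously expressing miR-21, stably carrying CMV-driven firefly luciferase with a downstream miR-21 binding site, 2000 cells/well. Titrations up to approximately 40 uM, 48 hours; luciferase luminescence read.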
Rango release inh: qHTS Assay for Inhibitors of RanGTP induced Rango (Ran-regulated importin-beta cargo) - Importin beta complex dissociation | Snurportin-1 (Homo sapiens) + GTP-binding nuclear protein Ran (Homo sapiens) + Importin … | Biochemical FRET Rango-importin beta, RanGTP-induced dissociation | Potency, µM (top dose mostly 46.1 µM), inactives show at the highest dose activity change, negative = inhibition | 340,000 compounds, 0.071% hits; active means falling FRET ratio curve, often poorly fitted, with flat reads before Ran was added; inconclusive means other falling curves, or compound fluorescence or quenching; inactive means flat or rising ratio curve;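 note: potency is the fitted concentration of half-maximal effect; % of control where 0% means no effect; nearly all actives have a fitted effect of over 45% in size; -100% = wells without RanGTP and RCC1; the record marks most hits as doubtful in a second field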
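FRET read at 45 min, room temperature: inhibitors block the CFP/YFP signal rise when RanGTP (0.6 uM Ran, 2 mM GTP, 0.2 uM RCC1) frees Rango (0.1 uM) from importin beta (0.25 uM). Pre-read after 5 min compound exposure flags interference.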
Rango complex inh: qHTS Assay for Inhibitors of Rango (Ran-regulated importin-beta cargo) - Importin beta complex formation | Potency, µM (series often up to 92.2 µM), for the others: at the top dose inhibition of complex formation | Rango CFP/YFP FRET sensor + importin beta, 45 min | Importin subunit beta-1 (Homo sapiens), Q14974 | 340,000 compounds, 0.031% hits; active = rising FRET ratio curve, often small or poorly fitted; inconclusive = mostly compound fluorescence or quenching in the first reads; inactive = flat curves in all reads;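 note: potency is the fitted concentration of half-maximal effect; 0% = DMSO wells and 100% = buffer wells lacking importin beta; nearly all actives have a fitted effect of over 15% in size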
Target sequence (Q14974 whole entry, looked up): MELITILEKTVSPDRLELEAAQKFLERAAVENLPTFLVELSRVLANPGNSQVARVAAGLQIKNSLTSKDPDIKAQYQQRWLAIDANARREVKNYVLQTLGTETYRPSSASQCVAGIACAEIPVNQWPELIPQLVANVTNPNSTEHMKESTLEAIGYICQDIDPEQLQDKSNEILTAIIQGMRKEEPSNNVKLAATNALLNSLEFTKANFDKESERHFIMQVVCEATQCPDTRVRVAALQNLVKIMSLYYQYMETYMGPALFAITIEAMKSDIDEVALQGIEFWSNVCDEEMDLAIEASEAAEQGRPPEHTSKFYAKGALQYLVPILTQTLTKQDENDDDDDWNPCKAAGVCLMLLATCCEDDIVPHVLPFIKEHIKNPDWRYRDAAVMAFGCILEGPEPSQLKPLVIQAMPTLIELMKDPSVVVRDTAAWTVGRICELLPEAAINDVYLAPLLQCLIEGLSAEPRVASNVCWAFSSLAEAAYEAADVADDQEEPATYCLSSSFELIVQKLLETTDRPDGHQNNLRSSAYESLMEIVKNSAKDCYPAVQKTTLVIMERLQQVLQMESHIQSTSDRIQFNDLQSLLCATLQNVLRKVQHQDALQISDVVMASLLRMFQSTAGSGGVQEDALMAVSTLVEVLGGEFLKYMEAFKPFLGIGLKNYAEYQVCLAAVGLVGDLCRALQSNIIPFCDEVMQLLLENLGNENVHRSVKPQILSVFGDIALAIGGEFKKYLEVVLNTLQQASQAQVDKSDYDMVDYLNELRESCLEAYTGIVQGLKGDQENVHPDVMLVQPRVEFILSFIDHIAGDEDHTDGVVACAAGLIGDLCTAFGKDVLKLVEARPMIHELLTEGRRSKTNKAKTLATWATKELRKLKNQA
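FRET biosensor (snurportin 1 IBB flanked by EYFP and cerulean), 50 nM, with compound 5 min, then 0.125 microM importin beta in PBS, 1 mM DTT, 0.02% Tween-20, 0.1% BSA. CFP/YFP ratio read after 45 min at room temperature; pre-read flags interference.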
GLA inh pH 4.5: qHTS Assay for Inhibitors of Human alpha-Galactosidase at pH 4.5; Alpha-galactosidase A (Homo sapiens), P06280; purified enzyme, 4-MU-alpha-Gal fluorescence, pH 4.5; activity change, negative = inhibition, % at 105 µM; 230,000 tested, under 10 active; AID 1467, 2008; inconclusive = small, poorly fitted or top-dose-only inhibition, or a rising curve; inactive = flat fitted curve, though single readings scatter; no compound was filed as active;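 note: 0% = full activity with enzyme and -100% = basal without enzyme; dose as in the result columns while the protocol names 77 µM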
Active calls of the source: *; u = inconclusive; x = not tested or not shown; & = joins results of further samples. Only part of the results is shown. The share of hits here may be higher or lower than overall.

| miR-21 reporter | SMILES | Rango release inh | Rango complex inh | GLA inh pH 4.5 |
| --- | --- | --- | --- | --- |
| 4.3% | Nc1c(C(=O)NCc2ccc3c(c2)OCO3)nnn1-c1ccc(OC(F)(F)F)cc1 | -7.6% | -3.6% | -15.8 |
| -4.4% | C/C(Cc1ccccc1)=N\NC(=O)CNC(=O)c1ccccc1Br | -7.4% | 6.9% | -3.1 |
| -4.6% | COc1ccccc1N/C=C1/Sc2cc(Cl)ccc2NC1=O | x | x | -7.6 |
| -33.0% | C/C(=N\NC(=S)NC1CCCCC1)c1ccc(C)o1 | -4.7% | -1.0% | 1.6 |
| -30.4% | Cc1ccn2cc(-c3ccc(NS(=O)(=O)c4ccccc4)cc3)nc2c1 | -0.1% | -0.9% | 2.5 |
| -5.3% | Cc1c(C)c2cc3c(C)coc3cc2oc1=O | 0.7% | -2.3% | x |
| -1.1% | CC(NC(=O)C1CCC(CNC(=O)[C@@H]2Cc3ccccc3CN2)CC1)c1ccccc1 (stereo partly specified) | -10.9% | -1.6% | x |
| 1.4% | O=C1/C(=C/C=C/c2ccccc2)Oc2c1ccc(O)c2CN1CCN(CCO)CC1 | u | u | -18.7 |
| 0.7% | CN1C(=O)[C@H]2[C@@H](C3CC3)N3C(=O)CN(Cc4ccc(-c5ccccc5)cc4)C(=O)[C@@]3(C)[C@H]2C1=O | -2.4% | 0.0% | x |
| 3.4% | CC(C)(C)C(=O)Nc1nnc(SCC(=O)NC2CCCC2)s1 | 16.5% | -0.2% | x |
| -2.3% | Cc1ccc(OCC(=O)Nc2ccc3c(c2)nc(CCN2CCOCC2)n3C)cc1 | 5.2% | u | 12.8 |
| x | Cn1c(CCC(=O)Nc2ccc(S(C)(=O)=O)cc2)nc2cc(S(=O)(=O)N3CCOCC3)ccc21 | -17.9% | u | x |
| -11.0% | COc1ccccc1NS(=O)(=O)c1ccc2oc(=O)ccc2c1 | 15.9% | -4.7% | x |
| -0.9% | O=C(O)C1CCC(N2C(=O)c3cccc([N+](=O)[O-])c3C2=O)CC1 (stereo unspecified) | 0.0% | -1.8% | x |
| -13.0% | N#Cc1nc(Cc2cccc3ccccc23)oc1NCc1ccc2c(c1)OCO2 | -2.0% | 0.3% | -4.8 |
| -2.4% | O=C(Nc1ccccc1Cl)C1(c2ccccc2)CC1(Cl)Cl (stereo unspecified) | 5.3% | -2.0% | 0.3 |
| -11.3% | CCn1ncc(/C=N\NC(=O)COc2ccccc2)c1C | -3.3% | 0.6% | -2.2 |
| x | O=C(Nc1ccc(Cl)c(S(=O)(=O)N2CCCCC2)c1)c1ccncc1 | -18.4% | 1.9% | x |
| x | O=C(COc1ccc(F)cc1)NCC1(N2CCOCC2)CCCCC1 | -8.7% | -3.3% | x |
| 28.6% | O=c1oc2ccccc2cc1-c1cn(-c2ccccc2)c(=S)[nH]1 | u | u | -23.5 |
| -6.2% | O=C(N/N=C/c1ccccn1)C1CC1 | -6.1% | -2.1% | -13.3 |
| 1.8% | CCCCS(=O)(=O)N1CCC(C(=O)Oc2ccccc2OC)CC1 | -16.7% | 0.4% | x |
| -4.6% | COc1ccccc1N(CC(=O)Nc1ccc(F)c(F)c1)S(C)(=O)=O | -1.9% | 0.2% | -17.3 |
| 6.7% | Cc1ccc2oc3c(c(=O)c2c1)C(c1cccc(Cl)c1)N(CCCN1CCOCC1)C3=O (stereo unspecified) | -2.6% | -3.1% | 0.4 |

In another format: entries from further up.
Below each SMILES – miR-21 reporter	Rango release inh	Rango complex inh	GLA inh pH 4.5
> N#Cc1nc(Cc2cccc3ccccc23)oc1NCc1ccc2c(c1)OCO2
    -13.0%	-2.0%	0.3%	-4.8
> O=C(Nc1ccccc1Cl)C1(c2ccccc2)CC1(Cl)Cl (stereo unspecified)
    -2.4%	5.3%	-2.0%	0.3
> CCn1ncc(/C=N\NC(=O)COc2ccccc2)c1C
    -11.3%	-3.3%	0.6%	-2.2
> O=C(Nc1ccc(Cl)c(S(=O)(=O)N2CCCCC2)c1)c1ccncc1
    x	-18.4%	1.9%	x
> O=C(COc1ccc(F)cc1)NCC1(N2CCOCC2)CCCCC1
    x	-8.7%	-3.3%	x
> O=c1oc2ccccc2cc1-c1cn(-c2ccccc2)c(=S)[nH]1
    28.6%	u	u	-23.5
> O=C(N/N=C/c1ccccn1)C1CC1
    -6.2%	-6.1%	-2.1%	-13.3

(cont.)
| miR-21 reporter | SMILES | Rango release inh | Rango complex inh | GLA inh pH 4.5 |
| --- | --- | --- | --- | --- |
| 6.4% | O=C(CN1CCC(NC(=O)c2ccccc2F)CC1)Nc1ccc2c(c1)OCO2 | 0.4% | 0.3% | 5.8 |
| 0.5% | CCOC(=O)CCC(=O)Nc1ccccc1C(N)=O | 10.6% | -1.5% | 5.3 |
| -12.5% | O=C(/C=C/c1ccccc1)N1CCCN(C(=O)/C=C/c2ccccc2)CC1 | 12.5% | 5.0% | 0.0 |
| -4.9% | CCCCCN1CC(O)=C(c2nc(-c3ccc(Cl)cc3)cs2)C1=N | 8.3% | -1.5% | 4.2 |
| -0.2% | CCC(C(=O)NCCc1ccc(OC)cc1OC)n1nc(C)n2c(cc3occc32)c1=O (stereo unspecified) | 25.5% | u | x |
| -2.8% | CCn1c(SCC(=O)Nc2ccc(F)cc2)nc2ccccc2c1=O | 17.6% | -1.1% | x |
| -1.3% | CC(C)c1ccc(/C=N/NC(=O)c2cccc(S(=O)(=O)N3CCOCC3)c2)cc1 | 3.4% | 0.4% | -0.9 |
| -1.0% | O=C(NCC1CCCO1)C1CCCN1C(=O)Nc1ccc(Cl)c(Cl)c1 (stereo unspecified) | -5.7% | -0.7% | -0.3 |
| -2.2% | CCOCCCNC(=O)c1c(-c2ccccc2)noc1C | -1.7% | -0.4% | 4.0 |
| x | Cc1ccc(S(=O)(=O)N2CCC(C(=O)Nc3cccnc3)CC2)cc1 | 1.8% | 0.7% | x |
| -64.9% | O=c1[nH]c(COc2ccc(Br)cc2Cl)nc2ccccc12 | -5.7% | -3.9% | x |
| 0.6% | COC(=O)[C@@H]1CC[C@H](C)[C@@H](c2ccc(C)cc2)N1C(=O)c1ccc(/C=N/O[C@H](C)c2cn([C@@H]3COC[C@H]3O)nn2)cc1 | x | x | 7.0 |
| -1.8% | CCc1cc(/C(Cc2ccccn2)=N\O)c(O)cc1O | 7.5% | 4.1% | -1.6 |
| 0.1% | CC(=O)c1cc2c(ccc3ccccc32)oc1=O | u | u | x |
| 5.3% | COC(C[C@@H]1O[C@@H]1[C@@H](O)COCc1ccccc1)OC | -4.5% | -6.9% | -15.2 |
| -50.7% | COc1ccccc1C(=O)Nc1nnc(-c2ccccc2)s1 | -7.6% | -3.1% | x |
| -4.1% | CC(C)CN(C(=O)CN(C)S(=O)(=O)c1ccc(Cl)cc1)C1CCS(=O)(=O)C1 (stereo unspecified) | -3.5% | -1.9% | x |
| x | COC(=O)CCC(C)C1CCC2C3CCC4CC(O)CCC4(C)C3=CC(=O)C12C (stereo unspecified) | -19.9% | 2.6% | x |
| -1.4% | COc1ccccc1N1CCN(C(=O)CCN2C(=O)c3cccc4cccc(c34)C2=O)CC1 | 5.5% | -0.8% | 0.5 |
| 6.6% | CC1CCCCC12NC(=O)N(CC(=O)Nc1cccnc1Cl)C2=O (stereo unspecified) | -5.8% | u | x |
| -2.8% | O=C(COC(=O)c1cc(-c2ccc(Cl)s2)nc2ccccc12)NCc1ccco1 | u | u | 1.9 |
| -1.3% | CCCNc1nc2c(c(=O)[nH]c(=O)n2C)n1CCc1ccccc1 | -13.5% | u | 5.9 |
| -4.1% | Nn1c(SCC(=O)Nc2ccc3c(c2)OCO3)nnc1C1CC1 | -5.7% | 0.0% | 4.3 |
| 0.7% | Cc1ccc(S(=O)(=O)NN2C(=O)c3ccccc3NC2(C)C)cc1 | -2.9% | 0.2% | 3.4 |
| -6.8% | CCCC1=[N+](CC(=O)c2ccccc2)CCn2cccc21 | -2.7% | u | 8.9 |
| -0.4% | O=C(Nc1ccc(S(=O)(=O)NC2=NCCCCC2)cc1)C1COc2ccccc2O1 (stereo unspecified) | -0.3% | 2.4% | 4.4 |
| 0.5% | Cc1cc(N2C(=O)C(O)=C(C(=O)c3cccs3)C2c2cccc(O)c2)no1 (stereo unspecified) | 5.0% | -1.5% | 1.2 |
| -9.2% | CC(=O)CSc1nnc(NC(=O)CCc2ccccc2)s1 | -11.4% | -1.3% | 2.6 |
| -5.7% | CSc1ccccc1NC(=O)CN(C)C(=O)CCc1c[nH]c2ccccc12 | 6.8% | -1.8% | x |
| -9.8% | Cc1ccc(N2CC(C(=O)N3CCCc4ccccc43)CC2=O)cc1 (stereo unspecified) | 4.5% | -4.7% | -5.5 |
| 3.3% | CCOC(=O)C1CCN(S(=O)(=O)c2ccc3c4c2CC(=O)N4CC(C)S3)CC1 (stereo unspecified) | -13.7% | -3.3% | x |
| 10.8% | CC(=O)c1c(C)[nH]c(C(=O)OCC(=O)NCCC(C)C)c1C | -9.2% | 1.8% | -2.0 |
| -11.6% | COc1ccc(Cl)cc1S(=O)(=O)N1CCCC1 | 6.7% | -0.4% | -4.5 |
| 0.5% | O=C(c1ccccc1)c1c[nH]c(C(=O)C(Cl)(Cl)Cl)c1 | -13.4% | 1.2% | 2.4 |
| x | Cc1cccc(C(=O)Nc2ccc(C(=O)c3ccccc3)cc2)c1 | 0.8% | -0.9% | x |
| -2.7% | Cc1ccc(-n2[nH]c(C)c(C=Nc3ccc(S(=O)(=O)Nc4nccs4)cc3)c2=O)c(C)c1 | x | x | 9.3 |
| -0.3% | C/C(N)=C(/C#N)C(=O)COC(=O)C(NS(=O)(=O)c1ccc(Cl)cc1)C(C)O (stereo unspecified) | -1.5%&-1.0% | 0.3%&0.3% | -4.7 |
| -5.8% | Nc1ccc(-c2ccc(C(=O)O)s2)cn1 | -28.8% | 0.2% | 10.8 |
| x | O=C(NCC(c1ccco1)N1CCOCC1)c1ccc(F)c(F)c1 (stereo unspecified) | u | -3.5% | x |
| x | COc1ccc(N2CC(NS(=O)(=O)c3ccc4ccccc4c3)CC2=O)cc1 (stereo unspecified) | -6.2% | -4.7% | x |
| -2.5% | CCn1c(SCC(=O)Nc2nc(C)cs2)nnc1C(C)NC(=O)c1ccccc1 (stereo unspecified) | 3.9% | -1.9% | -0.6 |
| -20.6% | CCOC(=O)NC(=O)CSc1nc(C)cc(C(F)(F)F)c1C#N | u | u | -1.0 |
| 0.7% | Cc1cc(C)c(S(=O)(=O)Nc2ccc(O)c(Sc3ncn[nH]3)c2)c(C)c1 | 11.6% | 3.2% | 3.6 |
| -8.4% | O=C(CCSc1nnc(-c2ccncc2)o1)Nc1ccc(F)cc1 | -17.5% | 1.0% | -2.9 |
| -4.1% | Cc1cc(F)ccc1S(=O)(=O)N1CCCOC1CNC(=O)C(=O)NC1CCCCC1 (stereo unspecified) | 5.9% | u | x |
| x | CN1CCN(c2ccc(S(=O)(=O)N3CCCCC3)cc2N)CC1 | -9.4% | 3.6% | x |
| -2.0% | Cc1cccc(C)c1NC(=O)CSc1nc(C)c(CC(=O)c2ccc(Br)cc2)c(C)c1C#N | 13.9% | 6.0% | 3.3 |
| 0.2% | CC(=O)NCCc1nc2ccccc2n1Cc1cccc(C)c1 | -6.3% | 2.5% | -5.2 |
| -17.6% | O=C(c1cccs1)N1C(=O)c2cccc3cccc1c23 | -4.9% | u | -2.0 |
| -23.2% | N#CC(/C(=N/S(=O)(=O)c1cccs1)c1ccccc1)c1nc2ccccc2[nH]1 (stereo unspecified) | 2.3% | -1.5% | -6.8 |
| -3.7% | O=C(NCCCCCCNC(=O)OC1CCS(=O)(=O)C1)OC1CCS(=O)(=O)C1 (stereo unspecified) | 7.7% | -1.3% | 7.7 |
| 0.6% | Cc1ccc(NC(=S)NC(CO)C(O)c2ccc([N+](=O)[O-])cc2)cc1 (stereo unspecified) | 7.5% | 0.8% | -2.5 |
| -7.0% | COc1cccc(-c2csc3nnc(SCC(=O)NCc4cccs4)n23)c1 | 0.3% | 5.1% | 4.6 |
